VDR inhibitor: vitamin D3 receptor (human) inhibition; P11473; VDR-SRC2-3 peptide fluorescence polarization, 2 h; Potency, µM, for inactives: max response, negative = inhibition, actives largely listed as inhibitors; 400,000 compounds, 0.93% hits; AID 504847; active = well fitted inhibition curve with a large enough effect; inconclusive = small, poorly fitted or top-dose-only effect, or another doubt; inactive = no such curve, though single readings can be large or run the other way; note: series mostly up to about 120 µM
Target sequence (P11473 whole entry, looked up): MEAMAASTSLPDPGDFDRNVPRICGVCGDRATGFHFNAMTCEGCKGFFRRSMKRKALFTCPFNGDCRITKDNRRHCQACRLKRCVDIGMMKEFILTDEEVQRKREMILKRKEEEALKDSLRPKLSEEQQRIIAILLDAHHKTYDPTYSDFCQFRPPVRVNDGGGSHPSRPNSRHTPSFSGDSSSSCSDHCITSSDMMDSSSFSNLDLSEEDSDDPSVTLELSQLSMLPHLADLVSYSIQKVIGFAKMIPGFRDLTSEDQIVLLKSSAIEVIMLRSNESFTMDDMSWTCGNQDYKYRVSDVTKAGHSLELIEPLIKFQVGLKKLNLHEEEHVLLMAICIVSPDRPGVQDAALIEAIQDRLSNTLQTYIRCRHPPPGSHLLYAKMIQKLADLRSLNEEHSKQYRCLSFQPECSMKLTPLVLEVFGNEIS
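Compounds are added to VDR with labelled SRC2-3 coactivator peptide and held 2 h at room temperature. Inhibition of the VDR–peptide interaction is then read as a change in fluorescence polarization.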
Starred values were filed as active, the others as inactive; ? = inconclusive. % is set by controls: 0 for no effect and ±100 for the full control effect; potency is the fitted concentration of half-maximal effect. An excerpt; the hit share may differ from the screen's.

VDR inhibitor | structure
-21% | CC(C)c1c(O)cc(-c2ccncc2)n(-c2ccc(Cl)cc2)c1=O
-4% | Cc1cc(C)nc(Nc2n[nH]c(COc3ccc4ccccc4c3)n2)n1
6% | CC(=O)N(C[C@@H](C)C(=O)O)c1c(I)cc(I)c(N)c1I
1% | Nc1nonc1C(=O)NCCNc1ccc([N+](=O)[O-])cc1
-2% | COc1cccc(-c2nnc(NC(=O)c3cccc(F)c3)o2)c1
-26% | CCO[C@@H]1OC(C(=O)N2CCN(Cc3ccc4c(c3)OCO4)CC2)=C[C@H](c2ccc(Br)cc2)[C@H]1CCCO
-18% | CSCCC(CO)NC(=O)OCc1ccccc1 (stereo unspecified)
1% | Nc1nc(N)c2[nH]cnc2n1
7% | COc1ccc(-c2cccc(NS(=O)(=O)c3cc(C(F)(F)F)ccc3Cl)c2)nn1
-12% | Nc1ccnn1Cc1cccs1
-30% | COC(=O)c1sc(=S)sc1C(=O)OC
0% | N#CC1=C(N)Oc2ccc3ccccc3c2C1c1cccnc1 (stereo unspecified)
-29% | Cc1ccc(/C(O)=C/C(=O)C(=O)NC23CC4CC(CC(C4)C2)C3)cc1
3% | Cc1cc(NC(=O)Cc2ccccc2)nc2c1c(=O)oc1ccccc12
-13% | Cc1[nH]c2ccccc2c1CCNC(=O)c1ccc2c(c1[N+](=O)[O-])C(=O)c1ccccc1C2=O
-6% | CCC(CO)Oc1cc(NCc2ccc(C(C)(C)C)cc2)c2ncn(C(C)C)c2c1 (stereo unspecified)

A few values from above.
In VDR inhibitor, `CC(=O)N(C[C@@H](C)C(=O)O)c1c(I)cc(I)c(N)c1I` is entered as 6%
In VDR inhibitor, `CSCCC(CO)NC(=O)OCc1ccccc1` (stereo unspecified) is entered as -18%

Continued:
VDR inhibitor | structure
-16% | Cc1cc(C)n2c(SCc3nnc(-c4cccs4)o3)nnc2n1
-11% | Cc1cc(NC(C)C)n2c(nc3ccccc32)c1C#N
-5% | C=CCn1nnnc1-c1cccc(Cl)c1
-17% | COc1ccc(-c2nc(N3CCN(S(=O)(=O)c4ccccc4)CC3)c3ccccc3n2)cc1
-1% | Cc1ccc(NC(=O)CCS(=O)(=O)c2ccccc2)cc1S(=O)(=O)N1CCOCC1
2% | O=C(NC(=O)c1ccc(C(F)(F)F)cc1)Nc1ccc(-c2cnco2)cc1
-3% | COc1ccc(S(=O)(=O)N2CCC(C(=O)NCCC(=O)Nc3nccs3)CC2)cc1
-9% | Cn1nc(-c2ccccc2)c2ncc(C(F)(F)F)cc21
-8% | COc1nc(NC23CC4CC(CC(C4)C2)C3)nc(OC)n1
2% | C=C[C@@]1(C)C[C@H](OC(=O)CSC(C)(C)CNC(=O)[C@@H](N)C(C)C)[C@@]2(C)C(C)CC[C@@]3(CCC(=O)[C@@H]32)[C@H](C)[C@H]1O (stereo partly specified)
15% | Cc1ccc2c(=O)cc(C(=O)Nc3sc4c(c3C(=O)NCc3cccnc3)CCCC4)oc2c1C
-6% | CC12CCC(=O)N1C(C(=O)Nc1ccccc1N1CCOCC1)CS2 (stereo unspecified)
-10% | COc1ccccc1NC(=O)c1cc2c(n(-c3ccc(C)cc3)c1=O)CC(C)(C)CC2=O
-9% | CC(C)[C@H](NC(=O)NCCc1ccc(Cl)cc1)C(=O)O
-9% | CCc1cc2c(=O)c(-c3nc4ccccc4n3C)c(CCCC(=O)O)oc2cc1OC(=O)C(C)(C)C
18% | COc1ccc(N2CCN(C(=O)c3oc4c(c3C)C(=O)CCC4)CC2)cc1
18% | O=C(Nc1ccc(NC(=O)c2cc([N+](=O)[O-])ccc2N2CCOCC2)cc1)c1cccs1
-6% | c1ccc2c(c1)oc1c(N3CCOCC3)ncnc12
6% | COc1ccc(N2CCN(C(=O)C(OC(C)=O)c3ccccc3)CC2)cc1 (stereo unspecified)
-8% | Cc1ccc[n+](Cc2ccc([N+](=O)[O-])cc2)c1
16% | COC(=O)c1ccc(Cn2nnc3c(=O)[nH]c(C4CCN(S(=O)(=O)c5cc(C)ccc5C)CC4)nc32)cc1
-13% | CCc1cccc(NC(=O)CCc2nc3sc4c(c3c(=O)[nH]2)CCCC4)c1
-21% | CCOc1ccc(CSC(=N)N)cc1[N+](=O)[O-]
6% | Cc1ccc(CNC(=O)c2ccc(CSCc3c(F)cccc3Cl)o2)cc1
-3% | NCCCCCCNS(=O)(=O)c1ccc2c(Cl)cccc2c1
-25% | O=C(CCNS(=O)(=O)c1ccccc1C(F)(F)F)N1CCCCCCC1
-11% | O=c1[nH]c(-c2ccccc2)c(-c2ccccc2)nc1[N+](=O)[O-]
-2% | Nc1c(C(=O)Nc2ccccc2)nnn1Cc1ccc(F)cc1Cl
3% | Cc1oc(-c2cccc(Cl)c2)nc1CN1CCC(C(=O)NC(C)C)CC1
7% | CCOC(=O)CSc1snnc1-c1ccccc1
-5% | CCOC(=O)N1CCN(C(=O)CSc2nc3c([nH]c4ccccc43)c(=O)n2CCOC)CC1
-15% | CC(=O)c1cccc(NC(=O)CCCOc2ccc(C)cc2)c1
-13% | N#CCCn1cc(C(CC(=O)c2ccc(Br)cc2)C(=O)O)c2ccccc21 (stereo unspecified)
? | Cc1cc(O)c(C(=O)/C=C/c2ccc(Cl)cc2)c(=O)o1
-12% | Cc1ccc(C)c(OCCn2cc(C(=O)c3cccs3)c3ccccc32)c1
5% | CC(C)N1CCc2c(sc(NC(=O)c3cc(-c4cccs4)nc4ccccc34)c2C(N)=O)C1
? | CC[C@]12c3[nH]c4cc(-c5ccco5)ccc4c3CCN1C(=O)[C@@H](CC(=O)NC/C=C(\C)CCC=C(C)C)C[C@@H]2C(=O)N1CCN(C(=O)C2CC2)CC1
-12% | CCOC(=O)CCCN1CC(O)=C(c2nc(-c3ccc(Cl)cc3)cs2)C1=N
? | Cc1sc(NC(=O)CCl)c(C(=O)c2ccccc2)c1C
-21% | Cc1ccc2c(c1)C(=O)C(=O)N2c1ccc(C(F)(F)F)cc1
0% | CCN(c1cccc(C)c1)S(=O)(=O)c1ccc2c(c1)NC(=O)CS2
4% | COc1ccc(NC(=O)c2cc(=O)[nH]c3ccccc23)cc1
14% | CC(SCC(=O)Nc1ccc(S(=O)(=O)N2CCCCC2)cc1)C(=O)O (stereo unspecified)
-6% | OC(CSc1ccccc1Cl)CN1CCN(c2ccccc2F)CC1 (stereo unspecified)
8% | Cc1ccc(Nc2nc(-c3ccc(S(=O)(=O)N4CCOCC4)cc3)cs2)cc1Cl
13% | NNC(=O)c1c[nH]c2ccc(OCc3ccccc3)cc12
-11% | CCOC(=O)C1CCN(C(=O)c2ccc3c(c2)sc2nc(-c4ccc(OC)cc4)cn23)CC1
11% | COc1cc(C)c(CNc2cc(C)cc(C)c2)cc1C
6% | CCc1cc(=O)[nH]c(SCc2nc(-c3cccc(Cl)c3)no2)n1
1% | CC(C)CN(C(=O)CN(C)C(=O)Cc1ccc(Cl)cc1)c1c(N)n(CC(C)C)c(=O)[nH]c1=O
-15% | CCOc1ccc2nc(N3CCCC(C(=O)NCCCN4CCOCC4)C3)sc2c1 (stereo unspecified)
-1% | Cc1cc(NC(=O)C2Oc3ccccc3OC2C)no1 (stereo unspecified)
-11% | CC(Cc1cccs1)NC(=O)Nc1cccc(Cl)c1 (stereo unspecified)
-7% | COc1ccc(/C=N/N2CCN(C3c4ccccc4-c4ccccc43)CC2)cc1OC
1% | Cc1ccc(S(=O)(=O)NCC(=O)OCC(=O)N2N=C(c3ccc(Cl)cc3)CC2c2ccco2)cc1C (stereo unspecified)
2% | CCN(CC)C(=O)CN(C#N)c1nc(NC(C)C)nc(NC(C)C)n1

(cont.)
VDR inhibitor | structure
0% | COC(=O)c1ccc(COc2ccc(C=O)cc2OC)o1
-3% | COCCNC(=O)CN1C(=O)COc2ccc(S(=O)(=O)N3CCCC3)cc21
12% | CC(=O)c1ccc(Nc2ccc(-c3ccccc3F)nn2)cc1
? | O=[N+]([O-])c1ccc(/C=C2\CCC(C3=CCCC3)=C2N2CCOCC2)cc1
-4% | CCn1c(COc2cccc(C)c2)nnc1SCC(=O)Nc1cccc(C(=O)OC)c1
? | O=S(=O)([O-])CCC[N+]1(CC#Cc2ccccc2)CCCCC1
-4% | CC(=O)N(C)c1ccc(NS(=O)(=O)c2cc(Cl)ccc2Cl)cc1
-7% | Cc1sc2ncnc(SCC(=O)N(C(C)C)C(C)C)c2c1C
9% | COc1cc(/C=N/NC(=O)c2ccccn2)ccc1OC(=O)c1ccccc1Br
0% | COc1ccc(OC)c(S(=O)(=O)N2CCN(c3ccc(F)cc3)CC2)c1
6% | CCSc1nnc(-c2ccc(OC)cc2)o1
0% | COc1ccccc1NC(=O)CNC(=O)c1ccccc1
-6% | CCCNC(=O)CN(c1ccc(F)cc1)S(=O)(=O)c1ccc2c(c1)OCCO2
? | Cc1cccc(N=C2NC(=O)/C(=C/C=C/c3ccco3)S2)c1
10% | Cc1ccc(Nc2cnn(C34CC5CC(CC(CC(=O)O)(C5)C3)C4)c(=O)c2Cl)cc1C
? | COc1ccccc1-c1cc(C(F)(F)F)nc(S(=O)(=O)CCCC(=O)NC(C)C)n1
-7% | O=C(Oc1cccc(OC(=O)N2CCCCC2)c1)N1CCCCC1
-7% | Cc1ccc(N2C(=O)N(CC(=O)Nc3cc(Cl)ccc3C)C(=O)C2C)cc1 (stereo unspecified)
10% | C=CCSc1nc2c(cc1C#N)CCC2
? | COc1ccc(C2CC23N=C(c2ccccc2)OC3=O)cc1 (stereo unspecified)
-2% | Cc1cccc2cc(CN(Cc3nnnn3Cc3ccccc3)C3CCCC3)c(=O)[nH]c12
-16% | COCCNC(=O)CCn1c(=O)[nH]c2cc(OC)c(OC)cc2c1=O
-10% | O=C(COc1ccc(F)cc1Br)N1CCN(c2ncccn2)CC1
3% | COc1ccccc1NC(=O)Cn1cnc2sc(C(=O)Nc3ccc(OC)c(OC)c3)c(C)c2c1=O
-11% | CSc1nc2c(c(=O)n1-c1ccc(C)cc1)SCC2
-7% | O=C1Nc2ccc3c(c2C1=Cc1cc2c(cc1Br)OCO2)OCO3
16% | Cc1occc1C(=O)N/N=C/c1cccs1
1% | CN(C(=O)COc1ccccc1)c1nc(-c2ccc(F)cc2)cs1
-15% | CC1CCCC(NC(=O)C2COc3ccccc3O2)C1C (stereo unspecified)
7% | CCC(=O)Nc1ccc(C(=O)CSc2nc3ccccc3[nH]2)cc1
-4% | CC(=O)Nc1ccc(S(=O)(=O)NCCC(=O)Nc2ccc(C)c(Cl)c2)cc1
-12% | CN(C)S(=O)(=O)c1ccc(Cl)c(C(=O)Nc2ccc(S(=O)(=O)N3CCOCC3)cc2)c1

Reprinted at random: 4 records from the list, in no set order.
VDR inhibitor | structure
-10% | COc1ccccc1NC(=O)c1cc2c(n(-c3ccc(C)cc3)c1=O)CC(C)(C)CC2=O
-9% | CCc1cc2c(=O)c(-c3nc4ccccc4n3C)c(CCCC(=O)O)oc2cc1OC(=O)C(C)(C)C
-11% | CCOC(=O)C1CCN(C(=O)c2ccc3c(c2)sc2nc(-c4ccc(OC)cc4)cn23)CC1
0% | COC(=O)c1ccc(COc2ccc(C=O)cc2OC)o1

Other records
VDR inhibitor | structure
2% | COc1cc(OC)c(S(=O)(=O)Nc2ccc(C(=O)O)cc2)cc1S(=O)(=O)Nc1ccc(C(=O)O)cc1
2% | O=C(c1ccc([N+](=O)[O-])cc1[N+](=O)[O-])N1CCCC1
-5% | C=CC[C@@H](Cc1ccc(F)cc1)C(=O)OC[C@H]1CCCN1C(=O)[C@H](CC=C)CC(=O)N(CCO)Cc1ccccc1
-10% | CCCOC(=O)c1c(NC(=O)CCCn2nc([N+](=O)[O-])c(Cl)c2C)sc(C(=O)OC)c1C
-17% | COc1ccc2cc(OC)c(C(=O)N3CCOCC3)cc2c1
-7% | CN(CC(=O)Nc1ccc(Cl)c(C(F)(F)F)c1)C(=O)c1cnccn1
6% | Cc1ccc(NS(=O)(=O)c2ccccc2F)cc1S(=O)(=O)N1CCCCCC1
12% | O=C(Nc1nnc(C2CCCO2)s1)c1ccc(Br)cc1 (stereo unspecified)

An excerpt from above in order of molecular weight, low to high.
VDR inhibitor | structure
2% | O=C(c1ccc([N+](=O)[O-])cc1[N+](=O)[O-])N1CCCC1
-17% | COc1ccc2cc(OC)c(C(=O)N3CCOCC3)cc2c1
-4% | CC(=O)Nc1ccc(S(=O)(=O)NCCC(=O)Nc2ccc(C)c(Cl)c2)cc1
6% | Cc1ccc(NS(=O)(=O)c2ccccc2F)cc1S(=O)(=O)N1CCCCCC1
-10% | CCCOC(=O)c1c(NC(=O)CCCn2nc([N+](=O)[O-])c(Cl)c2C)sc(C(=O)OC)c1C
2% | COc1cc(OC)c(S(=O)(=O)Nc2ccc(C(=O)O)cc2)cc1S(=O)(=O)Nc1ccc(C(=O)O)cc1
-5% | C=CC[C@@H](Cc1ccc(F)cc1)C(=O)OC[C@H]1CCCN1C(=O)[C@H](CC=C)CC(=O)N(CCO)Cc1ccccc1

The results go on:
VDR inhibitor | structure
5% | Cn1cc(Cl)c(C(=O)OCC(=O)Nc2ccccc2)n1
-29% | CC(=O)Oc1ccc(/C=c2\sc3ncnn3c2=O)cc1
-8% | Nc1c2c(nc3ccccc13)N(c1ccccc1)CC2
0% | CCC1CCc2sc(C(=O)OCC(=O)N(CCOC)c3c(N)n(Cc4ccccc4)c(=O)[nH]c3=O)cc2C1 (stereo unspecified)
6% | CCN(CC)C(=O)c1ccc(N)cc1
11% | COc1cc(Cl)c(NS(=O)(=O)c2ccc(-c3cnc(C4CC4)o3)cc2)c(OC)c1
-4% | CCOC(=O)c1c(C)[nH]c(C)c1S(=O)(=O)Nc1ccc(CN2CCCCC2)cc1
-14% | Cc1c(C(=O)C(=O)N2c3ccccc3CC2C)c2ccccc2n1C (stereo unspecified)
-8% | Cc1cccc(NC(=O)c2ccc3c(c2)OCCO3)c1C
8% | C[C@H]1COC(=O)[C@@H](Cc2ccc(F)cc2)CC/C=C/C[C@@H](CC(=O)N(CCO)Cc2ccccc2)C(=O)N1
-1% | COc1cccc(CNC(=O)c2cc3c(C)nc4ccccc4c3o2)c1
-5% | C=CCn1cnc2c(nnn2-c2cc(C)cc(C)c2)c1=O
-2% | CC(=O)Nc1ccc(S(=O)(=O)NNC2=NS(=O)(=O)c3ccccc32)cc1

High-throughput results (PubChem BioAssay)
